High-throughput results (PubChem BioAssay)
GLA inh pH 4.5 = alpha-galactosidase A (human) inhibition, pH 4.5; 230,000 tested, under 10 active; activity change, negative = inhibition, % at 105 µM; purified enzyme, 4-MU-alpha-Gal fluorescence, pH 4.5; inconclusive = small, poorly fitted or top-dose-only inhibition, or a rising curve; inactive = flat fitted curve, though single readings scatter; no compound was filed as active;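 further: 0% = full activity with enzyme and -100% = basal without enzyme; dose as in the result columns while the protocol names 77 µM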
Target sequence (P06280 whole entry, looked up): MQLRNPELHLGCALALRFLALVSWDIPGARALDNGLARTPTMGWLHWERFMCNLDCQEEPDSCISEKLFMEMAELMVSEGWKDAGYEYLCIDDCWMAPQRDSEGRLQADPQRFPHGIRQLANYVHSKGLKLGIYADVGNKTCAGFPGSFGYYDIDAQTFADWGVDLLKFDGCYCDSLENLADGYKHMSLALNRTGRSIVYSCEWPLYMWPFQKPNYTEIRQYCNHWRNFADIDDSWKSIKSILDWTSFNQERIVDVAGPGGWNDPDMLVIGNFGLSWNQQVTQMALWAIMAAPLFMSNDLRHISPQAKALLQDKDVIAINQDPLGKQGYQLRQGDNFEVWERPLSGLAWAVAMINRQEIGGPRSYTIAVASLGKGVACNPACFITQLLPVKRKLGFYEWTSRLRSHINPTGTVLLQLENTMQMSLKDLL
Rango dissoc inh = prevents RanGTP from dissociating the Rango-importin beta complex. 340,000 compounds, 0.071% hits. AID 540253. Potency, µM (titrated, usually from 46.1 µM), without a hit: at the top dose activity change, negative = inhibition. O95149+P62826. Biochemical FRET Rango-importin beta, RanGTP-induced dissociation; active means falling FRET ratio curve, often poorly fitted, with flat reads before Ran was added; inconclusive means other falling curves, or compound fluorescence or quenching; inactive means flat or rising ratio curve;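 further: potency means the concentration at half of the fitted maximal effect; % of control where 0% means no effect; nearly all actives have a fitted effect of over 45% in size; -100% = wells without RanGTP and RCC1; the record marks most hits as doubtful in a second field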
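Rango FRET biosensor (snurportin-1 IBB flanked by N-terminal EYFP and C-terminal CFP10) at 0.1 uM, with 0.25 uM importin beta in PBS, 1mM DTT, 0.02% Tween-20, 0.1% BSA. 0.6 uM Ran, 2mM GTP and 0.2 uM RCC1 were then added for 45 min at room temperature. Inhibition read as loss of FRET rise.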
Rango-impB inh = prevents formation of the Rango-importin beta complex. Q14974. Rango CFP/YFP FRET sensor + importin beta, 45 min. Potency, µM (top dose mostly 92.2 µM), inactives show top-dose inhibition of complex formation. 340,000 compounds, 0.031% hits. AID 540263; active = rising FRET ratio curve, often small or poorly fitted; inconclusive = mostly compound fluorescence or quenching in the first reads; inactive = flat curves in all reads;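 further: potency means the concentration at half of the fitted maximal effect; 0% = DMSO wells and 100% = buffer wells lacking importin beta; nearly all actives have a fitted effect of over 15% in size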
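Inhibition scored from the CFP 486 nm/YFP 530 nm FRET ratio 45 min after adding 0.125 microM importin beta to 50 nM Rango biosensor preincubated 5 min with compound (room temperature, PBS with DTT, Tween-20, BSA). No-importin wells as positive control.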
miR-21 FLuc = raises the signal of a miR-21 reporter; AID 2288; 340,000 tested, under 10 active; HeLa miR-21 FLuc reporter, luciferase, 48 h; Potency, µM (doses to about 38.3 µM), for the others: at the top dose reporter change, positive = more light; active = well fitted rising curve with a large enough effect; inconclusive = small, poorly fitted or top-dose-only effect; inactive = no such curve, though single readings can be large or run the other way;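 further: % of control where 0% means no effect; miR-21 action dims this reporter so a rising signal means less miR-21 action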
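HeLa miR-21-FLuc reporter line, endogenous miR-21; 2000 cells/well in DMEM/10% FBS; compound titration up to ~40uM final, 48 h, 37 degree Celsius; luciferase detection reagent, 15 min lysis, CCD luminescence.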
An asterisk follows results filed as active; u = inconclusive; x = no result given. An excerpt; count on the stated rates, not on these rows.

Molecule	Rango-impB inh	Rango dissoc inh	GLA inh pH 4.5	miR-21 FLuc
CCN(C(=O)COC(=O)c1ccccc1OCc1ccc(Cl)cc1)C1CCS(=O)(=O)C1 (stereo not given)	0.1%	-2%	x	x
COc1ccc2c(c1)CC/C2=N\NC(=O)c1ccccc1	1.7%	15%	3	-56%
Cc1occc1C(=O)N1CCCC(N2CCN(c3cccc(C(F)(F)F)c3)CC2)C1 (stereo not given)	u	-12%	x	16%
COc1ccccc1NC(=O)Cn1ncc2c1-c1ccccc1OC2	0.2%	0%	0	-2%
CCCCNC(=O)N1CCN(C(c2ccccc2)c2ccccc2)CC1	-2.7%	-16%	x	1%
Cc1occc1C(=O)N/N=C/C=C\c1ccccc1[N+](=O)[O-]	-0.5%	u	-1	-25%
CCOC(=O)CN1C=C(c2ccc3ccccc3n2)C(C[N+](=O)[O-])c2ccccc21 (stereo not given)	u	u	-6	-25%
O=C(COC(=O)c1cc(S(=O)(=O)N2CCOCC2)ccc1F)NC1CCCCC1	-0.5%	12%	x	x
O=C(NCCC1=CCCCC1)C1CCN(c2nc3ccccc3o2)CC1	1.7%	-4%	3	-4%
Cc1cccc(NC(=O)C2CCN(S(C)(=O)=O)CC2)c1C	4.9%	14%	x	0%
COc1ccc(NC(=O)CSc2nc(N3CCCCC3)nc(N3CCCCC3)n2)cc1	-0.4%	25%	4	3%
Cc1c(C)c(C)c(C(=O)C2CCN(c3ccc([N+](=O)[O-])cn3)CC2)c(C)c1C	2.4%	-4%	-6	-2%
COC(=O)c1c(NC(=O)c2cccc(S(=O)(=O)N3CCN(C)CC3)c2)sc(C)c1C	u	33%	x	x
COc1cc2[nH]c(=S)nc(NCc3cccc(Cl)c3)c2cc1OC	-2.5%	3%	x	10%
CC1CC(C)CN(c2ccc(NS(=O)(=O)c3ccccc3)cc2C(=O)O)C1 (stereo not given)	5.9%	0%	x	-6%
Cc1ccc2nc(-c3ccccc3C)oc(=O)c2c1	-3.5%	0%	x	-3%
O=C(Cn1cnc2c(OCc3ccccc3)ncnc21)N1CCN(c2ccccn2)CC1	-0.2%	6%	x	x
CCCCn1nnnc1SCC(=O)N1CCCC1	3.8%	-8%	3	1%
Cc1nc2ccccc2n1CCN1CCOCC1	-2.7%	9%	5	2%
CC(C)Cc1nnc(NC(=O)CCC(=O)N2CCN(c3ccc([N+](=O)[O-])cc3)CC2)s1	0.7%	-2%	x	u
CC(=O)c1ccc([C@@H]2C[C@]34CN(Cc5cccc(C(F)(F)F)c5)S(=O)(=O)[C@H]3C[C@H]2O4)cc1	-0.9%	-2%	-3	14%
S=c1nc(-c2ccccc2Cl)[nH][nH]1	-2.7%	-2%	-5	0%
COc1cc(OC)c2c(-c3cccc(-c4ccc(OC(F)(F)F)cc4)c3)cc(=O)oc2c1	0.3%	-6%	-10	x
Cc1ccc(S(=O)(=O)NCCCCCC(=O)N(C)C)cc1	0.1%	0%	-5	-4%
CC(=O)NC1C(c2nc3ccccc3s2)=C(c2ccccc2)C(=O)N1c1ccc(C)cc1 (stereo not given)	2.1%	-1%	-10	-7%
Cc1ccc(OCCN(C)C(=O)c2cc(COc3ccc(F)cc3F)on2)cc1	0.2%	-15%	x	-11%
CC(C)CCn1c(=O)c2ccccc2n2c(CN3CCOCC3)nnc12	-0.6%	0%	0	-7%
COc1ccc(/C=C2\SC(=O)N(CC(=O)Nc3cccnc3)C2=O)cc1OC	u	12%	-2	3%
CCOC(=O)C1C(=O)NC(C(=O)OCC)(C(=O)OCC)C1C(C)CC (stereo not given)	4.4%	-9%	x	x
NC(=O)NC(=O)CSc1nc(-c2ccccc2)c(-c2ccccc2)n1CC1CCCO1 (stereo not given)	1.4%	-2%	-10	-4%
Cc1cccc(C(=O)N/C(=C/c2ccco2)C(=O)N2CCCCCC2)c1	u	-19%	x	-5%
O=C(O)Cn1cc(/C=c2/sc3nc4ccccc4n3c2=O)c2ccccc21	u	u	-5	-45%
CCn1c(SCC(=O)NCC2CCCO2)nnc1-c1ccccc1OC (stereo not given)	-2.7%	14%	x	x
O=C(CN1CCN(c2ccccc2O)CC1)Nc1ccc([N+](=O)[O-])cc1Br	0.2%	19%	-16	-2%
COc1ccc2c(=O)c3ccccc3oc2c1	-0.1%	5%	x	-52%
COc1ccccc1CNS(=O)(=O)c1c(C)[nH]c(=O)[nH]c1=O	-2.4%	-2%	2	-1%
CSc1nc(SCC(=O)NCc2ccco2)c2c3c(sc2n1)CN(C)CC3	-4.2%	-2%	x	x
CCCN(CCC)C(=O)CCS(=O)(=O)c1cccc2nsnc12	0.3%	9%	2	-5%
CN(C)C(=O)c1ccc(NC(=O)CN2CCc3cc4c(cc3C2)OCCCO4)cc1	-1.2%	-9%	x	-3%
CCOc1ccc(C(=O)N(CN2CCCC2=O)c2cccc(Cl)c2)cc1	1.6%	-1%	-26	-6%
O=C(Nc1ncccc1O)c1cccc(S(=O)(=O)N2CCN(c3ccc(F)cc3)CC2)c1	-2.8%	-1%	x	x
Cc1nnc(SCC(=O)Nc2ccccc2)n(N)c1=O	-0.1%	-2%	7	6%
O=C(c1nc2ncccn2n1)N1CCc2ccccc2C1	0.0%	-10%	9	-7%
CCCCCCNC(=O)CSc1nccn1Cc1ccccc1	4.1%	-9%	-10	-8%
CCNC(=O)CCc1nc(-c2ccc(C(C)(C)C)cc2)no1	6.8%	0%	4	24%
N#Cc1ccccc1COC(=O)CCCC1=NS(=O)(=O)c2ccccc2N1	-3.2%	14%	x	1%
Cc1cc(/C=C2/C(=O)NN(c3ccccc3)C2=O)c(C)n1-c1cccc(O)c1	4.3%	11%	-3	-21%
Cc1c(NC(=O)CCSCCc2ccccn2)cccc1[N+](=O)[O-]	-0.7%	0%	5	0%
CCN1C(=O)[C@@H]2[C@H](C1=O)[C@@H]1C(=O)Nc3ccccc3C(=O)N1[C@@H]2c1cccc(OC)c1	-0.2%	3%	x	x
CCN(CC)S(=O)(=O)c1ccc(/C=C/C(=O)OCC(=O)Nc2cccc3ccccc23)cc1	0.4%	8%	3	-13%
CCOC(=O)c1sc(NC(=O)c2ccc(C)o2)nc1C	0.0%	3%	-2	-21%
CCC(CO)Oc1cc(NCc2ccccc2C)c2ncn(C(C)C)c2c1 (stereo not given)	u	u	x	x
COc1ccc(CC(=O)N(CC2CCCO2)c2nc3ccccc3s2)cc1 (stereo not given)	-3.7%	2%	-2	-25%
C/C(N)=C(/C#N)C(=O)COC(=O)c1cccc(C)c1O	-4.0%	15%	1	-7%
CN(C)CCN(C(=O)C1CCN(S(=O)(=O)c2cccs2)CC1)c1nc2c(F)cccc2s1	-1.1%	-15%	x	x
CCOC(=O)c1c(C)[nH]c(C(C)=NNC(=O)c2cccs2)c1C	u	-21%	x	x
C[C@H]1CN=C(N(C)C)N1CCCC1CCCC1	4.9%	12%	x	x
CN(C(=O)CCNC(=O)Cn1ccc2ccccc2c1=O)c1ccc(Br)cc1	6.1%	16%	x	4%
CCOC(=O)N1CCC(NC(=O)c2cc(C(=O)Nc3cccc(OC)c3)ccc2CO)CC1	-2.2%	-11%	7	-2%
CC1(C)Cc2c(cnn2-c2ccc(F)cc2)C(NC(=O)CCC(F)(F)F)C1 (stereo not given)	2.4%	-3%	x	-13%

Next part.
Molecule	Rango-impB inh	Rango dissoc inh	GLA inh pH 4.5	miR-21 FLuc
C1=C(N2CCOCC2)/C(=C/c2nc3ccccc3[nH]2)CC1	u	u	-19	-8%
Cc1noc(C)c1COc1ccccc1C(=O)Nc1cccc(S(=O)(=O)N(C)C)c1	-5.5%	9%	x	x
Brc1ccccc1-c1nnc(CSc2nnnn2-c2ccccc2)o1	1.7%	-10%	-3	-33%
COc1cccc(CNC(=O)CCC2CCCN(Cc3cc(Cl)ccc3O)C2)c1 (stereo not given)	-1.0%	-15%	6	-2%
Cc1cc(C)nc(NC(=O)CSc2nn(C)c(=S)s2)n1	-2.2%	-3%	5	-7%
Cc1ccc(C(=O)N2CCOCC2)cc1S(=O)(=O)N1CCOCC1	-4.4%	-1%	x	-6%
Cc1ccccc1OS(=O)(=O)c1cn(C)c(=O)n(C)c1=O	-4.3%	1%	6	0%
O=C(CSc1nc2cc(Cl)ccc2s1)c1cc2ccccc2o1	u	u	2	-10%
CCN(CC)C(=S)Nc1ccc([N+](=O)[O-])cc1	-0.6%	12%	-5	-21%
Cc1ccc(NC(=O)c2onc(C)c2Cl)cc1	-5.2%	4%	-6	-34%
Cc1ccc(NC(=O)CCNS(=O)(=O)c2ccc3c(c2)oc(=O)n3C)cc1	-0.7%	12%	5	1%
CCOC(=O)[C@@H]1[C@H]2COc3ccccc3[C@@H]2N2C(=O)N(c3ccc(OC)cc3)C(=O)[C@]12C	-1.2%	-8%	x	x
Cc1cccc(N2CCN(c3nc(C)cc(C)c3C#N)CC2C)c1 (stereo not given)	u	u	x	-5%
CN(Cc1ccccc1NS(=O)(=O)c1ccc2ccccc2c1)C1CCCCC1	3.9%	-14%	-5	0%
COC(=O)c1ccccc1NC(=O)COc1ccc(S(=O)(=O)NC(C)C)cc1	0.1%	u	2	-10%

One compound at a time, as listed above. Order of screens: Rango-impB inh	Rango dissoc inh	GLA inh pH 4.5	miR-21 FLuc
Entry for `CCn1c(SCC(=O)NCC2CCCO2)nnc1-c1ccccc1OC` (stereo not given) : -2.7%	14%	x	x
Entry for `Brc1ccccc1-c1nnc(CSc2nnnn2-c2ccccc2)o1` : 1.7%	-10%	-3	-33%

(cont.)
Molecule	Rango-impB inh	Rango dissoc inh	GLA inh pH 4.5	miR-21 FLuc
Cc1nc(NCc2ccc3c(c2)OCO3)c2oc3ccccc3c2n1	-4.1%	-3%	-4	-9%
CC(=O)Nc1ccc(N/C=C/C(=O)C(C)(C)C)cc1	2.4%	1%	-6	-9%
O=C(NNC(=O)C(O)c1ccccc1)NC1CCCCC1 (stereo not given)	0.7%	1%	x	1%
Cc1cc(NC(=O)CSc2ccc3nnc(-c4ccccc4)n3n2)no1	-1.9%	-1%	-6	-3%
Nc1nc(-c2ccccc2)c(-c2ccccc2)n1N	u	-13%	x	-10%
CCn1c(SCC(=O)Nc2ccc(OCc3ccccc3)cc2)nnc1-c1ccco1	1.2%	0%	-7	2%
Cn1nccc1C(=O)Nn1cnnc1	-3.7%	3%	-12	-2%
COc1ccc(C(=O)Nn2cnnc2)c(OC)c1	-1.1%	-3%	9	-1%
COc1ccc(CN2CCN(CC(O)Cn3c4ccccc4c4ccccc43)CC2)cc1 (stereo not given)	0.9%	-7%	-17	-7%
O=C(CNC(=O)c1ccc(Br)o1)NCC1CCCCC1	2.5%	15%	x	x
COc1ccc(C2=NOC(C(=O)NC(C)(C)C)C2)cc1 (stereo not given)	-4.1%	-1%	-2	-7%
Cc1ccccc1C(=O)NC1CC2CCCC(C1)N2Cc1ccc(Cl)cc1 (stereo not given)	-1.5%	15%	x	1%
CCn1c(COc2ccc(C)cc2)nnc1SCC(=O)Nc1cc(OC)ccc1OC	2.7%	-11%	-9	9%
O=C(/C=C\Nc1ccccn1)c1ccccc1	-4.7%	0%	-3	-7%
CN(C)/C=C(/C(=O)c1ccc(F)cc1)S(=O)(=O)c1ccc(F)cc1	1.9%	7%	9	-36%
CCN(CC(=O)Nc1ccc(NC(C)=O)cc1)C(=O)c1cc(S(=O)(=O)N2CCCCCC2)ccc1OC	0.1%	-1%	x	x
O=C(Nc1ccc([N+](=O)[O-])cc1)c1cc(-c2ccccn2)nc2c(Cl)cccc12	-5.8%	8%	11	-2%
COc1ccc(-c2ccc3c(c2)S(=O)(=O)c2cccc(C(=O)N4CCN(c5ccc(Cl)cn5)CC4)c2C3=O)cc1OC	-1.1%	2%	x	x
